# Cruzain inh noDet = qHTS Assay for Promiscuous and Specific Inhibitors of Cruzain (without detergent); Cruzipain (Trypanosoma cruzi), P25779; 200,000 compounds, 2.3% hits; AID 1476, 2009; purified cruzain, Z-FR-AMC fluorescence, no detergent; Potency, µM, inactives show max response, negative = inhibition, most hits filed as inhibitors; active = well fitted curve in the direction sought with a large enough effect; inconclusive = small, poorly fitted or top-dose-only effect, or another doubt; inactive = no such curve, though single readings can be large; an effect the other way counts as inactive or inconclusive;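 also: plate controls were enzyme without inhibitor for no effect and buffer without enzyme for full effect; nearly all actives have a fitted effect of over 40% in size; top concentration of the series not given in the record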
# Target sequence (P25779 123-467 limits assumed): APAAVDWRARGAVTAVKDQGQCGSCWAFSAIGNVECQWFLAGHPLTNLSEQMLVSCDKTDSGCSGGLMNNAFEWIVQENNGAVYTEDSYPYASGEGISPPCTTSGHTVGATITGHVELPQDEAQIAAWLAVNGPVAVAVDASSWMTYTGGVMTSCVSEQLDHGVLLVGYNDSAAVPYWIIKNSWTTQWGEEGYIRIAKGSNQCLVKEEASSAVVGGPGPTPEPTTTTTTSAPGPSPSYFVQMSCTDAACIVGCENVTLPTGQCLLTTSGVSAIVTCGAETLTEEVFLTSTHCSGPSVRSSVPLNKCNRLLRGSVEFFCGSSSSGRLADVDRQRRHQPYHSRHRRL
#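 Purified cruzain at 1.5 nM, pre-incubated 15 min with compound at room temperature in 100 mM sodium acetate pH 5.5, 5 mM DTT, 0.00005% Triton X-100. Reaction started with 2 uM Z-FR-AMC; AMC fluorescence increase over 60 s gives rate.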
# Marburg entry inh = qHTS for inhibitors of binding or entry into cells for Marburg Virus; Marburg virus pseudotyped entry inhibition, cell reporter; control for the full effect not named in the record; about a third of the inactives were read at about 46 µM; 300,000 compounds, 1.8% hits; Potency, µM (top dose mostly 37.8 µM), without a hit: at the top dose activity change, negative = inhibition, hits mostly inhibitors; active = well fitted inhibition curve with a large enough effect; inconclusive = small, poorly fitted or top-dose-only effect, or effect the other way; inactive = flat fitted curve, though single readings scatter; tested in HEK293 cells; about a fifth of its hits are not listed in these tables; also: % is scaled to controls: 0 for no effect and ±100 for the full control effect; luciferase read-out
# RE007 growth inh = qHTS Assay for Inhibitors of the HIV-1 protein Vpr; S. pombe RE007 Vpr strain, BacTiter-Glo ATP luminescence, 24 h; control for the full effect not named in the record; 360,000 compounds, 0.21% hits; Potency, µM (doses to about 92.2 µM), without a hit: top-dose activity change, negative = less growth; AID 651644, 2012; active = well fitted falling curve with a large enough effect; inconclusive = small, poorly fitted or top-dose-only effect; inactive = no such curve, though single readings can be large or run the other way;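 also: % is scaled to controls: 0 for no effect and ±100 for the full control effect; nearly all actives have a fitted effect of over 50% in size; the assay follows cell death caused by Vpr and the record does not say whether a fall means rescue or toxicity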
#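 Fission yeast RE007 carrying one integrated HIV-1 vpr copy, seeded at OD 0.01 in PMG+AL medium with 23 nL pinned compound. Grown 24 h at 30 degrees; viability read by BacTiter-Glo luminescence after 5 min.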
# NS1 inh = qHTS Assay for Inhibitors of Influenza NS1 Protein Function; S. cerevisiae slowed by influenza A NS1, growth recovery by OD600; Potency, µM (series often up to 46.1 µM), for the others: at the highest dose activity, positive = more growth; 270,000 compounds, 0.4% hits; AID 2326, 2010; also: actives are rising curves; nearly all actives have a fitted effect of over 50% in size
#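 Recovery from NS1-induced slow growth read by OD600 in budding yeast switched to galactose assay medium (pH 6.0, -URA) at 1:100 dilution. Compound 23 nl per well; the matching strain lacking NS1 serves as control.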
# Cruzain Triton = qHTS Assay for Promiscuous and Specific Inhibitors of Cruzain (with detergent); purified cruzain, Z-FR-AMC fluorescence, 0.01% Triton; Potency, µM, for the others: max response, negative = inhibition, actives largely listed as inhibitors; Cruzipain (Trypanosoma cruzi), P25779; 200,000 compounds, 0.43% hits; active = well fitted curve in the direction sought with a large enough effect; inconclusive = small, poorly fitted or top-dose-only effect, or another doubt; inactive = no such curve, though single readings can be large; an effect the other way counts as inactive or inconclusive;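 also: plate controls were neutral wells for no effect and buffer without enzyme for full effect; nearly all actives have a fitted effect of over 40% in size; top concentration of the series not given in the record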
#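 Detergent-containing run (0.01% Triton X-100) in acetate buffer pH 5.5 with 5 mM DTT: enzyme at 1.5 nM final, 15 min compound preincubation at room temperature, then 2 uM Z-FR-AMC substrate. Activity taken as 60 s fluorescence increase at 360/450 nm.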
# Lassa entry inh = qHTS for Inhibitors of binding or entry into cells for Lassa Virus; Lassa virus pseudotype entry inhibition, cell reporter; control for the full effect not named in the record; Potency, µM (series often up to 37.9 µM), for inactives: top-dose activity change, negative = inhibition, hits mostly inhibitors; 300,000 compounds, 1.2% hits; AID 540256, 2011; active means well fitted inhibition curve with a large enough effect; inconclusive means small, poorly fitted or top-dose-only effect, or effect the other way; inactive means flat fitted curve, though single readings scatter; tested in HEK293 cells; also: % is scaled to controls: 0 for no effect and ±100 for the full control effect; nearly all actives have a fitted effect of over 50% in size; luciferase read-out
# SARS PLpro yeast = qHTS of Yeast-based Assay for SARS-CoV PLP | S. cerevisiae expressing SARS-CoV PLpro, growth rescue; control for the full effect not named in the record | Potency, µM (titrated, usually from 32.9 µM), inactives show top-dose activity, positive = growth rescue | 330,000 compounds, 0.19% hits | AID 485353, 2010; also: 0% is about no effect; nearly all actives have a fitted effect of over 55% in size; growth read by luminescence after 48 h
# 2A StopGo = High Throughput Screening for Foot and Mouth Disease Virus Antivirals. 410,000 compounds, 1.2% hits. Potency, µM (doses to about 57.9 µM), without a hit: top-dose signal change, negative = less light. human cells with a luciferase reporter of 2A StopGo recoding; control for the full effect not named in the record. AID 1159524, 2015; active = well fitted falling curve with a large enough effect; inconclusive = small, poorly fitted or top-dose-only effect; inactive = no such curve, though single readings can be large or run the other way; tested in HEK293T cells; also: % is scaled to controls: 0 for no effect and ±100 for the full control effect; nearly all actives have a fitted effect of over 45% in size; luciferase light after 4 h
# Numbers without * were called inactive; ? = inconclusive; . = not tested or not shown; & = joins results of further samples; [ ] = dose if it differs, or a comment. Unless noted, calls follow the shape of the dose curve; as a rule, active means well fitted rising curve with a large enough effect; inconclusive means small, poorly fitted or top-dose-only effect; inactive means no such curve, though single readings can be large or run the other way. Potency is read from the fitted curve at half-maximal effect. Compounds as they come. About 4.7% of those tested had a hit in this group.
SMILES,Cruzain inh noDet,Marburg entry inh,RE007 growth inh,NS1 inh,Cruzain Triton,Lassa entry inh,SARS PLpro yeast,2A StopGo
Cc1cc(C)c(NC(=O)CNC(=O)CN2C(=O)NC3(CCCc4ccccc43)C2=O)c(C)c1 (stereo not given),.,20%,-2%,.,.,12%,1%,-23%
CSc1nnc(-c2ccccc2N=Cc2c(C)[nH]n(-c3ccc4ccccc4c3)c2=O)c(=O)[nH]1,?,-1%[46.1 µM],?,10%,-9.9%,-5%,-13%,-2%
Cn1c(COc2ccccc2)nnc1SCc1cc(=O)[nH]c2ccccc12,-12%,?,1%,-6%,-1.0%,17%,3%,-6%
CC(=O)Nc1ccccc1C(=O)N1CCc2ccccc21,3%,15%,9%,3%,4.3%,12%,5%,0%
O=C(CS(=O)CC(=O)N(c1ccccc1)C(C(=O)NC1CCCC1)c1cccs1)Nc1ccc(F)cc1 (stereo not given),-19%,19%,3%,16%,1.3%,-10%,0%,-13%
CCn1c(SC/C=C/c2ccccc2)nnc1-c1cccs1,-3%,?,-7%,-49%,-9.0%,-9%,-11%,-16%
CS(=O)(=O)n1nc(-c2ccccc2)nc1N,0%,7%,2%,7%,5.8%,2%,10%,.
CCOC(=O)c1sc(N(C)C(C)=O)nc1C,0%,?,-7%,-19%,2.4%,20%,1%,8%
NS(=O)(=O)c1ccc(CCNC(=O)c2cc3ccccc3s2)cc1,.,1%[46.1 µM],2%,?,.,?,3%,12%
CCCSC1=N/C(=C\c2ccsc2)C(=O)S1,-6%,-1%,?,5%,1.4%,0%,3%,-18%
COc1ccc2c(c1)c(N1CCCC1=O)c(C(=O)Nc1cc(C)c(Cl)cc1OC)n2C,?,.,.,.,-16%,-19%[46.1 µM],.,-24%
CC(=O)c1sc(-c2ccccc2Cl)nc1C,.,.,-25%,-2%,.,.,1%,25%
O=C(Nc1ccccc1Cl)C1Cc2ccccc2O/C1=N\O (stereo not given),.,.,-1%,-7%,.,.,-1%,31%[activator]
Cc1ccc(O)c(-c2cc(C(=O)NCc3ccccc3)[nH]n2)c1,-6%,-19%,-5%,0%,-4.9%,?,29%,20%
O=C(Nc1nccs1)C1=COCCO1,.,4%,10%,.,.,1%[46.1 µM],-15%,6%
O=C(NCc1ccccn1)c1nn(-c2ccccc2)c(=O)c2ccccc12,.,11%[46.1 µM],-8%,.,.,-10%,-6%,-23%
NNC(=O)c1csc(-c2ncc(C(F)(F)F)cc2Cl)n1,.,24%,-3%,-1%,.,10%,-2%,23%
O=C(COc1ccccc1)Nc1ccc2oc(=O)ccc2c1,.,-1%[46.1 µM],4%,-10%,.,11%[46.1 µM],-1%,17%
O=P(NS(=O)(=O)c1ccccc1)(Oc1ccccc1)Oc1ccccc1,4%,9%,-3%,1%,6.7%,-8%,-13%,.
CC1CSc2nnc(CCc3ccccc3)n21 (stereo not given),14%,.,2%,7%,6.5%,.,-4%,-4%
COc1ccc(C2(C(=O)NCCCN3CCOCC3)CCOCC2)cc1,1%,?,-4%,4%,7.4%,14%,1%,-21%
O=C(CCCOc1ccc(Cl)cc1Cl)N/N=C/c1ccccc1O,-1%,?,11%,-11%,-3.5%,?,?,-17%
Cc1nc2nncn2c(Nc2ccc(F)cc2)c1C,-12%,4%[46.1 µM],.,.,-3.6%,1%[46.1 µM],.,-6%
[O-]/[N+](=C/c1cccnc1)c1ccc(Br)cc1,-23%,-2%,6%,0%,2.1%,?,1%,22%
COc1cccc(NC(=O)Cn2cnc3sc(C)c(S(=O)(=O)N4CCN(C)CC4)c3c2=O)c1,-5%,?,-29%,5%,-0.6%,1%,-7%,-9%
CCN(CC)C(=O)Cn1cc(SCC(=O)Nc2ccc(C)cc2)c2ccccc21,5%,.,.,.,-2.5%,10%[46.1 µM],.,-18%
O=C(NC1CC1)c1cc(F)c(F)cc1Cl,13%,-3%,2%,7%,1.6%,-4%,-10%,83%[activator]
CS(=O)(=O)N(CC(=O)Nc1ccccc1)c1cccc(Cl)c1Cl,.,-11%[46.1 µM],-4%,-4%,.,-26%[46.1 µM],0%,-6%
Cc1ccc(Cl)cc1N1CCN(C(=O)C2CCC(=O)N2C(C)C)CC1 (stereo not given),3%,5%,4%,-16%,1.7%,12%,-4%,-24%
CCOc1ccc2nc(NC(=O)C3CCCN(S(=O)(=O)c4cccs4)C3)sc2c1 (stereo not given),?,?,15%,-44%,0.4%,?,-6%,?
Cn1c(C(=O)NCC2CCCO2)cc2c(=O)[nH]c3ccccc3c21 (stereo not given),2%,16%,-3%,-7%,0.5%,-3%,14%,-14%
CC(=O)c1c(C)nn(CC(=O)NC2CCCN(Cc3ccc(CC(C)C)cc3)C2)c1C (stereo not given),.,.,3%,19%,.,.,?,?
CC1CCC(NC(=O)c2ccc3snnc3c2)CC1 (stereo not given),.,.,-24%,-3%,.,.,-6%,25%
COc1ccccc1N1CCN(C(=O)CSc2nc3ccccc3c(=O)n2CC2CCCO2)CC1 (stereo not given),?,2%&2%,18%,-5%,-3.2%,-11%,2%,0%
Cc1ccc(OCCn2c(C)nc3ccccc32)cc1,.,?,8%,-12%,.,?,-3%,-19%
COc1cc(NC(=O)c2ccco2)c(OC)cc1NC(=O)Nc1cccc(Cl)c1,25%,-1%,-5%,-4%,-6.6%,-30%,3%,-26%
Cc1cccc(C)c1OCc1cc(C(=O)N2CCNC(=O)C2)no1,.,.,3%,7%,.,.,1%,13%
CCOc1ccc(N(C(=O)Cn2nnc3ccccc32)C(C(=O)NCc2ccccc2)c2ccc(OC)cc2)cc1 (stereo not given),-2%,19%[46.1 µM],.,.,-2.5%,14%[46.1 µM],.,-6%
CCOC(=O)Cn1c(=O)n(CC2CCCO2)c2nc(-c3cc(OC)ccc3OC)nc(C(N)=O)c21 (stereo not given),29%,.,.,.,-3.1%,-1%[46.1 µM],.,-11%
CCN(CC)CC(=O)Nc1sc(C)c(C)c1C(=O)c1ccc(C)cc1,.,?,7%,-3%,.,0%,-1%,-11%

# Full records from above. Order of screens: Cruzain inh noDet	Marburg entry inh	RE007 growth inh	NS1 inh	Cruzain Triton	Lassa entry inh	SARS PLpro yeast	2A StopGo
# `CC1CCC(NC(=O)c2ccc3snnc3c2)CC1` (stereo not given) reads .	.	-24%	-3%	.	.	-6%	25%
# `CCN(CC)CC(=O)Nc1sc(C)c(C)c1C(=O)c1ccc(C)cc1` reads .	?	7%	-3%	.	0%	-1%	-11%
# `COc1ccccc1N1CCN(C(=O)CSc2nc3ccccc3c(=O)n2CC2CCCO2)CC1` (stereo not given) reads ?	2%&2%	18%	-5%	-3.2%	-11%	2%	0%
# `Cn1c(C(=O)NCC2CCCO2)cc2c(=O)[nH]c3ccccc3c21` (stereo not given) reads 2%	16%	-3%	-7%	0.5%	-3%	14%	-14%
# `CCOc1ccc(N(C(=O)Cn2nnc3ccccc32)C(C(=O)NCc2ccccc2)c2ccc(OC)cc2)cc1` (stereo not given) reads -2%	19%[46.1 µM]	.	.	-2.5%	14%[46.1 µM]	.	-6%

# Carrying on:
SMILES,Cruzain inh noDet,Marburg entry inh,RE007 growth inh,NS1 inh,Cruzain Triton,Lassa entry inh,SARS PLpro yeast,2A StopGo
O=C(C[n+]1cccc(O)c1)Nc1ccc(Br)cc1,.,2%[46.1 µM],-10%,16%,.,28%,-5%,4%
CCc1nc2c(c(=O)c3ccccc3n2C)c(=O)n1CCc1ccc(OC)cc1,-17%,.,.,0%,-4.4%,.,-17%,.
O=C1CCN(Cc2ccc(O)cc2)CCN1CCO,.,.,-8%&7%,4%,.,.,-1%,-11%&-27%
O=C(CN1CCCC1)Nc1c2c(cc3c1CCC3)CCC2,4%,?,7%,10%,-0.2%,-17%,?,-20%
O=C(c1ccc(Cl)c(Cl)c1)N1CCC(=O)N(C(COCc2cccc(Cl)c2)Cc2ccccc2)CC1 (stereo not given),4%,-47%,9%,22µM*,-8.1%,?,-36%,0%
Clc1ccc2nc(CN3CCCc4ccccc43)cn2c1,?,?,-10%,-44%,-8.9%,5%,-2%,.
Cn1nc(C(C)(C)C)c([N+](=O)[O-])c1C(=O)NC1CCCCC1,.,.,5%,-3%,.,.,?,-6%
CCCNC(=O)Cn1cccc1C(=O)c1ccccc1,-14%,10%,3%,-7%,0.3%,28%,-2%,6%
Cn1nnc2cc(C(=O)N3CCN(c4ccccn4)CC3)ccc21,.,?,9%,0%,.,19%[46.1 µM],0%,18%
O=C(NCc1ccccc1)C1CC(=O)N(C2CCCCC2)C1 (stereo not given),.,9%[46.1 µM],5%,7%,.,11%[46.1 µM],.,-18%

# Quoted from the listing.
# O=C(c1ccc(Cl)c(Cl)c1)N1CCC(=O)N(C(COCc2cccc(Cl)c2)Cc2ccccc2)CC1 (stereo not given) @ Marburg entry inh: -47%
# CCCNC(=O)Cn1cccc1C(=O)c1ccccc1 @ RE007 growth inh: 3%

# The list continues.
SMILES,Cruzain inh noDet,Marburg entry inh,RE007 growth inh,NS1 inh,Cruzain Triton,Lassa entry inh,SARS PLpro yeast,2A StopGo
O=C(Oc1ccc2c(c1)OCC2=O)c1ccc(Cl)cc1,.,-1%[46.1 µM],-13%,0%,.,2%[46.1 µM],-1%,-14%
O=S1(=O)CCOC[C@H](c2ccccc2)N1Cc1cccc(Cl)c1,.,.,-2%,-32%,.,.,-12%,0%
Cc1ccc(Sc2ccc(N3CCCC(C(=O)Nc4ccc(Cl)cc4)C3)nn2)cc1 (stereo not given),?,-23%[46.1 µM],.,.,-6.4%,?,.,7%
N#CCCN(C(=O)CSc1ccc2c(c1)OCCO2)c1ccc(F)cc1,-4%,-1%,0%,2%,4.1%,11%,19%,-6%

# Screening data: PubChem BioAssay, National Center for Advancing Translational Sciences (NCATS)
